From PubChem BioAssay
FLuc inh = inhibitors of firefly (Photinus pyralis) luciferase. P08659. purified P. pyralis luciferase, luminescence, biochemical. Potency, µM (top dose mostly 115 µM), for the others: at the highest dose activity change, negative = inhibition, actives largely listed as inhibitors. 76,000 tested, 2.5% active. AID 1347043; note: nearly all actives have a fitted effect of over 65% in size
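Purified P. pyralis luciferase (10nM final) in 50mM Tris acetate pH 7.5, 10mM Mg acetate, 0.01% Tween-20, 0.05% BSA with 10uM D-luciferin and 10uM ATP. Compounds titrated qHTS. Luminescence imaged on CCD.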
SNCA viab count = reduces viability of HEK-293 SNCA reporter cells | Potency, µM (top dose mostly 57.1 µM), inactives show top-dose activity change, negative = cytotoxicity, usual class: cytotoxic | 150,000 tested, 0.12% active | HEK-293-SNCA-luc viability, GF-AFC fluorescence, 24 h;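 note: 0% = DMSO-treated cells and -100% = medium-only wells without cells; nearly all actives have a fitted effect of over 30% in size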
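HEK-293-SNCA-luc cells (1500/well) plated 24 h, then exposed 24 h to a dilution series; GF-AFC added 30 min at 37C, fluorescence 405/540 nm; normalised to medium-only and DMSO wells, Hill fit.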
SNCA expr inh = reduces expression of the alpha-synuclein gene | HEK-293 SNCA-luciferase knock-in, luminescence, 24 h | Potency, µM (series often up to 57.2 µM), inactives show at the highest dose activity change, negative = inhibition, most hits filed as inhibitors | 140,000 tested, 0.17% active | AID 1671194;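 note: plate controls were DMSO cells for no effect and cell-free wells for full effect; nearly all actives have a fitted effect of over 45% in size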
GPT2 inhibitor = blocks human glutamate pyruvate transaminase 2 | Q8TD30 | Recombinant GPT2, coupled pyruvate oxidase/HRP Amplex Red fluorescence | Potency, µM (top dose mostly 57.7 µM), for the others: at the top dose activity change, negative = inhibition, most hits filed as inhibitors | 100,000 tested, 0.25% active; note: nearly all actives have a fitted effect of over 60% in size; many of its hits are not listed in these tables
Target sequence (Q8TD30 whole entry, looked up): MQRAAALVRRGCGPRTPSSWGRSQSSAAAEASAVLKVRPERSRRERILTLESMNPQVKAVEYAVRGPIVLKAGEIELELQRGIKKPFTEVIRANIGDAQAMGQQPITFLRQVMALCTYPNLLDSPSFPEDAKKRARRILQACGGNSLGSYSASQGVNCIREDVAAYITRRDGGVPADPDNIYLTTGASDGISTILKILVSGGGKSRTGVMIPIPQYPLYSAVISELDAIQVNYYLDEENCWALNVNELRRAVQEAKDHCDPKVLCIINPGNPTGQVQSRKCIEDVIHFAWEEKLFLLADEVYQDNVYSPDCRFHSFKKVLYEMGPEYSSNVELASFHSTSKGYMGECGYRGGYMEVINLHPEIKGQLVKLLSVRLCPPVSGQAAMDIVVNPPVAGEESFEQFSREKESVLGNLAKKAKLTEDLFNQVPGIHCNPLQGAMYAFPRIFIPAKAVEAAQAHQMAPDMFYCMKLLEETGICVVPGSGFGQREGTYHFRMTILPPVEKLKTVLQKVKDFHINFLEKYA
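Fluorescence of coupled pyruvate oxidase/HRP/Amplex Red system (50uM Amplex, 30 min, dark) reports pyruvate formed by GPT2. Enzyme reaction: 10ng/uL GPT2, 2mM L-alanine, 250uM a-KG, 30 min room temperature, pH 7.5; 50uM AOA control.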
3T3 cytotox = cytotoxic compounds in NIH 3T3 cells; NIH 3T3 viability, CellTiter-Glo ATP luminescence, 48-72 h; Potency, µM (highest dose often 96.7 µM), for the others: top-dose activity change, negative = cytotoxicity, usual class: inhibitors; 94,000 tested, 4.3% active; AID 1345082; note: nearly all actives have a fitted effect of over 55% in size
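First NIH 3T3 cells are plated at 400 cells/well; next compound is pinned in; then plates incubate 48 or 72 hr at 37 °C; finally CellTiter-Glo is added and luminescence read after 10 min.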
HEK293 tox = kills HEK 293 cells; HEK 293 viability, ATP luminescence (CellTiter-Glo), 48-72 h; Potency, µM (highest dose often 115 µM), inactives show at the highest dose activity change, negative = cytotoxicity, hits mostly inhibitors; 94,000 tested, 6.6% active; AID 1345083; note: nearly all actives have a fitted effect of over 60% in size
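CellTiter-Glo luminescence (cellular ATP) was read after 48 or 72 hr of compound exposure at 37 degree Celsius. Cells were HEK 293 plated at 250 cells/well.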
Active calls of the source: *; i = inactive; ? = inconclusive; / = not tested or not shown; & = joins results of further samples; [ ] = dose if it differs, or a comment. Calls come from the whole dose curve; as a rule, active = well fitted curve in the direction sought with a large enough effect; inconclusive = small, poorly fitted or top-dose-only effect, or another doubt; inactive = no such curve, though single readings can be large; an effect the other way counts as inactive or inconclusive. Unless noted, % is set by controls: 0 for no effect and ±100 for the full control effect; potency is the fitted concentration of half-maximal effect.

SMILES | FLuc inh | SNCA viab count | SNCA expr inh | GPT2 inhibitor | 3T3 cytotox | HEK293 tox
O=C(NCCc1csc(-c2ccc(F)cc2)n1)c1cccs1 | / | 10.3% | 99.9%[activator] | / | / | /
Cc1ccccc1NC(=O)c1cnc2c(c1)N(Cc1ccccc1)CCC2 | -22.1%[172 µM] | -0.1%[87.6 µM] | 1.2%[87.6 µM] | -3.2%[88.5 µM] | ? | ?
COc1ccc(N2CC3=C(C2=O)C(c2ccc(Br)cc2)NC(=O)N3C)cc1 (stereo not given) | / | -29.3% | -15.2% | / | / | /
Cn1cc([C@@H](NC(=O)c2scc3c2CCCC3)C2CC(O)C2)cn1 (stereo not given in full) | -10.7%&2.1% | 2.5%&2.1% | ? | -2.0% | -3.2%&-22.2% | -14.1%
Cc1ccc(S(N)(=O)=O)cc1C(=O)N[C@H](c1cnn(C)c1)C1CC(O)C1 (stereo not given in full) | -8.6% | 9.7% | 66.5%[activator] | i | -0.3% | i
COc1ccc(-c2[nH]nc3ncc(C(=O)NCC4CCOCC4)nc23)c(C)c1 | 9.0%[172 µM] | -25.4%[87.6 µM] | ? | -1.1%[88.5 µM] | ? | ?
CCc1ccccc1NC(=O)C(C)n1nc(-c2ccc(C)c(C)c2)ccc1=O (stereo not given) | / | -19.7% | -6.7% | / | / | /
C=CCc1ccccc1OCC(O)CN1CCN(c2ccccc2)CC1 (stereo not given) | / | 16.6% | -11.8% | / | / | /
COc1ccc(-c2nc(CCNC(=O)c3cccs3)cs2)cc1 | / | -1.7% | 1.3% | / | / | /
O=C1Nc2ccccc2C12CCN(S(=O)(=O)c1cccc(C(F)(F)F)c1)CC2 | / | 1.4% | -17.5% | -0.6% | -26.5% | ?
O=C1Nc2ccccc2C12CN(Cc1ccc(C(F)(F)F)cc1)C2 | / | -26.8% | ? | i | ? | ?
CC(C)CCNC(=O)C(=O)Nc1c2c(nn1-c1ccc(Cl)cc1)CSC2 | / | 7.8% | 12.8% | / | / | /
Cc1cc(C)cc(NC(=O)CCc2nnc3n(CC(C)C)c(=O)c4ccccc4n23)c1 | / | 0.6% | -0.8% | / | / | /
Cc1ccc(-n2ccnc(NCc3ccccc3)c2=O)cc1C | / | -2.8% | 93.6%[activator] | / | / | /
COc1ccc(-c2cc(-c3ccncc3)c3cncn3c2)cn1 | 4.0%[172 µM] | -4.7%[87.6 µM] | -8.8%[87.6 µM] | -14.0%[88.5 µM] | ? | ?
O=C(NCCCO)C(=O)Nc1c2c(nn1-c1ccccc1)CSC2 | / | -4.5% | -2.1% | / | / | /
O=c1c2cn[nH]c2nc(SCc2cccc(Br)c2)n1-c1ccc(Cl)cc1 | / | -8.7% | -6.2% | / | / | /
O=C(CSc1oc(-c2ccc(F)cc2)nc1S(=O)(=O)c1ccccc1)NC1CCCCC1 | / | -2.0% | 1.8% | / | / | /
COC(=O)CNC(=O)c1nc(-c2ccc(Cl)cc2Cl)c2ccccn12 | / | 6.3% | 11.5% | 1.3% | ? | ?
Cc1cnc(C2CCOCC2)n1CCNC(=O)c1cccn1C | / | 2.7% | -1.9% | i | 4.5% | -1.8%
COc1ccc(-n2ccnc(NCCc3ccc(S(N)(=O)=O)cc3)c2=O)cc1 | / | 3.5% | -16.3% | / | / | /
Cc1cc(F)ccc1-c1[nH]nc2ncc(-c3ccccc3)nc12 | 13.0%[172 µM] | -4.2%[87.6 µM] | -14.8%[87.6 µM] | i | ? | ?
CC(C)NS(=O)(=O)c1ccc2c(c1)nc(-c1ccc(CO)o1)n2C(C)C | -16.7% | -1.2% | -9.3% | ? | ? | -17.4%
COc1cccc(-c2cc(-c3cn[nH]c3)c3cncn3c2)c1 | -25.3%[230 µM] | -9.6%[87.6 µM] | -28.3%[87.6 µM] | 4.1%[88.5 µM] | ? | ?
O=C(O)C1=NOC2CN(C(=O)c3ccc(C(F)(F)F)cc3)CC12 (stereo not given) | / | 7.6% | -3.8% | -0.8% | 3.6% | -5.3%

New compounds follow
SMILES | FLuc inh | SNCA viab count | SNCA expr inh | GPT2 inhibitor | 3T3 cytotox | HEK293 tox
COc1ccc(-c2[nH]nc3ncc(C(=O)NCCc4ccccc4)nc23)c(C)c1 | -23.8%[172 µM] | ? | ? | 1.1%[88.5 µM] | ? | ?
O=C(C1CCCN([S+](=O)([O-])c2ccccc2)C1)N1CCC(N2Cc3ccccc3C2=O)CC1 (stereo not given) | / | 2.1% | -0.1% | i | -28.9% | -26.1%
Cc1ccccc1-c1cc(-c2cn[nH]c2)c2cncn2c1 | 6.2%[230 µM] | -5.1%[87.6 µM] | ? | -4.1%[88.5 µM] | 70.8µM* | ?
COc1ccc(NC(=O)Nc2cn(CC(C)C)c(=O)c3ccccc23)c(OC)c1 | / | 0.0% | 10.2% | / | / | /
O=C(NCCc1ccccc1)C(=O)NCC(c1cccnc1)N1CCN(c2ccccc2F)CC1 (stereo not given) | / | 2.9% | 6.6% | / | / | /
C#CCNC(=O)C1=NOC2CN(C(=O)C3CC3)CC12 (stereo not given) | / | -2.6%[87.6 µM] | ? | 1.8%[88.5 µM] | i | -0.7%[172 µM]
Cc1ccc(NC(=O)c2sc(-n3nc(C)c(Cc4ccc5c(c4)OCO5)c3C)nc2C)cc1Cl | / | 5.6% | 13.4% | / | / | /
COc1ccccc1CNC(=O)C(C)n1c(=O)cc(C(F)(F)F)c2c(C)nn(C)c21 (stereo not given) | / | 19.6% | 36.3% | / | / | /
Cc1ccc(-c2nc(S(=O)(=O)c3ccc(C)cc3)c(SCC(=O)c3ccccc3)o2)cc1 | / | -8.8% | -7.4% | / | / | /
CN(c1ccccc1)c1cc(=O)c2ccnc(-c3ccccc3O)c2o1 | -6.2%[172 µM] | -8.2%[87.6 µM] | ? | -0.4%[88.5 µM] | ? | ?
COc1ccccc1CNC(=O)C(CC(C)C)N1Cc2ccccc2C1=O (stereo not given) | / | -27.6% | -16.0% | / | / | /
C=CCc1cccc2cc(-c3nc4ccc(C)cc4[nH]3)c(=O)oc12 | / | 6.7% | 190.3%[activator] | / | / | /
Nc1nc2c(s1)C(c1cccc(F)c1F)CC(=O)N2 (stereo not given) | -19.3% | 6.3% | 6.0% | ? | i | -3.2%
CCNC(=O)CC1C(=O)N(c2cccc(OC)c2)C(=O)N1Cc1ccc(OC)c(OC)c1 (stereo not given) | / | -9.2% | -8.8% | / | / | /
N#Cc1ccccc1NC(=O)C(=O)NCC(c1ccc2c(c1)OCO2)N1CCOCC1 (stereo not given) | / | 0.6% | 1.3% | / | / | /
O=C1Nc2c(c(=O)[nH]c(=O)n2-c2ccccc2)C1(NS(=O)(=O)c1ccc(Cl)cc1)C(F)(F)F (stereo not given) | / | -6.8% | 29.8% | / | / | /
CC(C)n1c(=N)c(C(=O)NCc2cccnc2)cc2c(=O)n3ccccc3nc21 | / | ? | 16.0% | / | / | /
CNC(=O)c1cnc2c(c1)N(Cc1ccccc1)CCC2 | -9.3%[230 µM] | 4.5%[87.6 µM] | 16.0%[87.6 µM] | -2.3%[88.5 µM] | ? | -7.2%[230 µM]
COc1ccc(-n2ccnc(NCc3cccs3)c2=O)cc1 | / | 4.1% | 88.1%[activator] | / | / | /

Results in SNCA viab count, 3T3 cytotox and GPT2 inhibitor (3 entries from above):
compound	SNCA viab count	3T3 cytotox	GPT2 inhibitor
COc1ccccc1CNC(=O)C(CC(C)C)N1Cc2ccccc2C1=O (stereo not given)	-27.6%	/	/
C=CCc1cccc2cc(-c3nc4ccc(C)cc4[nH]3)c(=O)oc12	6.7%	/	/
Nc1nc2c(s1)C(c1cccc(F)c1F)CC(=O)N2 (stereo not given)	6.3%	i	?

An excerpt from above in order of formula weight, lowest first:
SMILES | FLuc inh | SNCA viab count | SNCA expr inh | GPT2 inhibitor | 3T3 cytotox | HEK293 tox
Nc1nc2c(s1)C(c1cccc(F)c1F)CC(=O)N2 (stereo not given) | -19.3% | 6.3% | 6.0% | ? | i | -3.2%
Cc1cc(F)ccc1-c1[nH]nc2ncc(-c3ccccc3)nc12 | 13.0%[172 µM] | -4.2%[87.6 µM] | -14.8%[87.6 µM] | i | ? | ?
CC(C)NS(=O)(=O)c1ccc2c(c1)nc(-c1ccc(CO)o1)n2C(C)C | -16.7% | -1.2% | -9.3% | ? | ? | -17.4%
N#Cc1ccccc1NC(=O)C(=O)NCC(c1ccc2c(c1)OCO2)N1CCOCC1 (stereo not given) | / | 0.6% | 1.3% | / | / | /
O=C1Nc2c(c(=O)[nH]c(=O)n2-c2ccccc2)C1(NS(=O)(=O)c1ccc(Cl)cc1)C(F)(F)F (stereo not given) | / | -6.8% | 29.8% | / | / | /

This is a subset (hit frequency here may not be typical).
